HNF4A DNA FP = change in binding of human HNF4A to DNA, primary screen, biochemical, fluorescence polarization, FITC-DNA; Hepatocyte nuclear factor 4-alpha (Homo sapiens), P41235; 1 h; activity change, % at 10 µM; hit rate 0.3% among 360,000; in the data active means activity change above about 30%, passing the limit was not always enough;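 further: controls were the assay level and a saturating level of protein; the project sought stronger binding though the title names inhibitors; some compounds called inactive have numbers as strong as hits; positive values seem to mean higher polarization but the record does not say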
Target sequence (P41235 whole entry, looked up): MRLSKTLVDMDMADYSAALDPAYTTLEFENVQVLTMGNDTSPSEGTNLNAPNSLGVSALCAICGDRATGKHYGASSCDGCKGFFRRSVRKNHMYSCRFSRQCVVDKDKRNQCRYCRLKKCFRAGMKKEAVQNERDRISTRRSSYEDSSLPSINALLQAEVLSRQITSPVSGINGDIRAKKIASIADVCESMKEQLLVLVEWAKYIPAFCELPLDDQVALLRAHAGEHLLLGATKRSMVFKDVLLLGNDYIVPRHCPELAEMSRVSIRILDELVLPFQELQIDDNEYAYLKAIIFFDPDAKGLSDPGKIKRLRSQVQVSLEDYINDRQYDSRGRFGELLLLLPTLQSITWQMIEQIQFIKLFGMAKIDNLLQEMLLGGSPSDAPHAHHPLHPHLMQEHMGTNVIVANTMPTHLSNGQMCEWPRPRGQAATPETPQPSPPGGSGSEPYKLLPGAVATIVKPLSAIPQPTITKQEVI
Ecoli growth = E. coli growth inhibition, primary screen, OD600. Escherichia coli growth, 23 h; stronger effect = lower value. OD600 absorbance (no concentration beside the values). AID 1053175, 2014. hit rate 0.21% among 330,000;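 active means OD600 absorbance below the run mean of sample wells minus 3.6 SD, in any replicate, cut at about 0.56 in these data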;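 further: stock transfer was 300 nL into about 60 µL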
LANA-H2A inh = blockers of LANA interaction with H2A/H2B – biochemical, FP readout, HTS, primary screen; Protein LANA1 (Human herpesvirus 8 type P (isolate GK18)), Q9QR71; cell-free LANA-H2A/H2B peptide, fluorescence polarization; inhibition, % (test concentration not listed); AID 2629, 2010; hit rate 0.6% among 320,000; in the data active means inhibition mostly above about 10%, no sharp cut-off; inactive means mostly below about 6.7%;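 further: stock transfer was 7.5 nL into about 10 µL; 0% = median of vehicle wells and 100% = median of positive control wells; one replicate is shown; the record names a cut of 25% in any replicate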
UCH37 inh = inhibitors of human UCH37 deubiquitinase, primary screen, biochemical, Ub-AMC cleavage, fluorescence | hit rate 0.33% among 330,000 | Ubiquitin carboxyl-terminal hydrolase isozyme L5 (Homo sapiens), Q9Y5K5 | AID 588478, 2011 | inhibition, % (concentration not given with the values) | purified proteasome/UCH37;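 active means mean of two replicates above 20%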;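 further: 0% = compound-free wells with enzyme and 100% = wells lacking proteasome; stock transfer was 100 nL into about 20 µL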
Target sequence (Q9Y5K5 whole entry, looked up): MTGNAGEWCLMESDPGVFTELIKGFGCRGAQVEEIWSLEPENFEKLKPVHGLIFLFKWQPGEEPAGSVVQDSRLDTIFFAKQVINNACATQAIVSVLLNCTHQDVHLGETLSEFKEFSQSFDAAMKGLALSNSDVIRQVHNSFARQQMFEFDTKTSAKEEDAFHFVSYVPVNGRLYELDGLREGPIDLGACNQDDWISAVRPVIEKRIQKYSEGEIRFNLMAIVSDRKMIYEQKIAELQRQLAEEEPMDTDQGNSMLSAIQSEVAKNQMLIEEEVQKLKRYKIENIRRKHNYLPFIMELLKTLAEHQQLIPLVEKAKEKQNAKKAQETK
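Assay system: Proteasome-bound UCH37. Buffer or medium: pH 7.4 Tris-HCl (50 mM) with ovalbumin, ATP-MgCl2, DTT. Incubation: 30 min preincubation with enzyme, 25 min cleavage at room temperature. Measured by: fluorescence, ex 355 nm, em 460 nm. Read-out basis: percent inhibition. Control set: wells without proteasome as full block, compound-free enzyme plus substrate as uninhibited.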
A1 inh = caspase 3/7 activation in MEF A1-2A-BIM cells, primary screen, A1 inhibitor project, cell-based, luminescence, HTS. hit rate 0.066% among 330,000. caspase activation, % (test concentration not listed). Caspase-Glo 3/7 luminescence, 3 h; percent of clofoctol response, vehicle zero;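 active means over half of replicate activation scores above 10%, or exactly half above 10 with the replicate mean above 10; inconclusive means replicate mean below 10 yet half the replicates above 10; inactive means over half of replicates below 10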;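 further: wells of about 30 µL received 50 nL stock; many hits fall short of the cut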
Vif A3G = inhibitors of Vif binding to APOBEC3G peptide, primary screen, biochemical, TR-FRET, GST-Vif 1-94, biotin-A3G peptide, dose response retest (AID 1117319); Virion infectivity factor (Human immunodeficiency virus type 1 group M subtype B (isolate …; TR-FRET GST-Vif / biotin-A3G peptide binding; higher % means a stronger effect; test concentration not given here; strong numbers were not always called active; inhibition, %, or IC50 in µM where a hit was titrated; hit rate 0.57% among 260,000;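 active means above the screen mean plus three standard deviations and confirmed in dose response; inconclusive means results disagree or hit not tested in dose response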;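 further: Vif residues 1-94 fused to GST binding biotinylated APOBEC3G peptide 110-148; 0% = full assay without inhibitor and 100% = GST in place of GST-Vif; retest series ran down from 100 µM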
B2AR ag = beta2AR agonists driving receptor internalization, primary screen, cell-based, FAP fluorogen, flow cytometry; response, % (no concentration beside the values); Beta-2 adrenergic receptor (Homo sapiens), P07550; Am2.2-beta2AR cells; reference of the scale not given here; AID 504454, 2011; hit rate 0.43% among 340,000;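 active means response above a set limit, near 3 SD of response in nonfluorescent compounds, cut at about 42% in these data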;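 further: stock transfer was 100 nL into about 11 µL; a reference agonist was the positive control; negative values mostly stem from fluorescent compounds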
* marks the source's active call; other numbers are inactive results; i = inactive; ? = inconclusive; . = no result given; & = joins results of further samples.

SMILES	HNF4A DNA FP	Ecoli growth	LANA-H2A inh	UCH37 inh	A1 inh	Vif A3G	B2AR ag
CC(C(=O)Nc1ccc2c(c1)OCO2)n1cnc2c1c(=O)n(C)c(=O)n2C (stereo not drawn)	-2.7	0.71	.	4.2	0.4	-20%	3
CCOC(=O)c1sc(SC)c(C(C)=O)c1C	0.1	0.75	1.3	-4.5	0.2	-2%	14
CC1CCN(CCOCCOc2ccccc2Br)CC1	-0.6	0.7	4.6	-0.1	0.0	6%	3
O=S(=O)(c1ccc(Br)cc1Cl)N1CCN(CCO)CC1	-3.1	0.7	-4.2	-1.6	-0.6	29%	-7
CC(C)CN(C(=O)COC(=O)CCc1nc2ccccc2s1)c1c(N)n(Cc2ccccc2)c(=O)[nH]c1=O	0.6	.	0.6	.	-0.6	.	-1
Cc1ccc(C(=O)Nc2ccc3c(c2)OCO3)cc1	-3.2	0.69	4.3	2.8	-6.9	4%	2
COc1cccc(/C=C2\SC(=S)N(CC3CCCO3)C2=O)c1 (stereo not drawn)	5.3	0.64	-0.1	3.3	-2.3	-9%	-2
COc1ccccc1NC(=O)NNC(=O)c1ccncc1	1.4	0.67	.	4.5	.	-6%	0
Cc1ccnc(NC(=O)c2cccc(OC(F)F)c2)n1	-1.7	0.69	-2.1	1.3	-0.3	.	0
COc1ccc(NC(=O)Nc2ccccc2SC)cc1	-1.1	0.71	-2.6	-0.9	-6.8	10%	-3
CCOc1cccc(/C=N/NC(=S)NCCN2CCOCC2)c1O	-0.9	.	0.6	.	1.4	0%	-3
COc1ccccc1OCC(=O)Nc1ccccc1C(=O)NCc1cccnc1	-1.8	0.66	-5.3	1.7	0.1	.	-1
COc1cc(-c2cc(C(=O)Nc3ccc(S(=O)(=O)Nc4ncccn4)cc3)c3ccccc3n2)cc(OC)c1OC	0.3	0.7	-8.2	0.7	0.4	.	1
C/C(Cn1cnc([N+](=O)[O-])n1)=N\NC(=O)c1ccc(F)cc1	1.8	.	0.7	.	-0.3	1%	-2
COc1ccc(CN2CCN(C(=O)c3ccc4c(c3)CCC4)CC2)cc1OC	0.3	0.68	3.1	0.4	-0.3	.	-6
CN(C(=O)CSc1nnc(Cc2ccccc2F)n1N)C1CCCCC1	0.5	0.69	2.2	0.0	0.4	6%	0
O=C(CCS(=O)(=O)c1ccc(F)cc1)Nc1nnc(-c2ccco2)o1	-0.4	0.61	-2.9	1.9	-0.4	-3%	4
CS(=O)(=O)N1CCN(CCN2C(=O)c3cccc4cccc(c34)C2=O)CC1	-3.2	0.69	-1.5	2.0	-0.7	.	0
COCCN1Cc2cccc(C(=O)Nc3c(C)cc(C)cc3C)c2C1=O	0.1	0.7	-1.6	0.7	-0.6	11%	2
CCOc1cc(CN2CCOCC2)cc(C(C)=O)c1	0.7	0.77	-10	1.9	0.6	0%	-3
COc1cccc(COc2ccc3c(C)cc(=O)oc3c2)c1	0.5	0.67	-2.9	-4.7	-9.1	6%	-1
CCS(=O)(=O)N1CCN(C(=O)CCC2CCCC2)CC1	-1.6	0.67	-0.9	7.1	0.1	12%	3
CCCn1cc(CN2CCC(N3CCC(C(=O)N4CCOCC4)CC3)CC2)c(C)n1	3.3	0.67	.	2.3	.	13%	4
O=C(Nc1cccnc1)c1cc(-c2ccc(Br)cc2)on1	2.6	0.77	-0.6	3.0	-5.7	5%	4
Cc1ccc(Cl)cc1N1CCN(S(=O)(=O)c2cnc[nH]2)CC1	-1.8	0.68	3.7	1.7	-0.9	?	-8

(further entries)
SMILES	HNF4A DNA FP	Ecoli growth	LANA-H2A inh	UCH37 inh	A1 inh	Vif A3G	B2AR ag
C=CCNC(=O)NC(=O)COC(=O)[C@H](C)NS(=O)(=O)c1c(C)c(C)cc(C)c1C	-0.9	0.69	4.2	1.2	1.1	.	-3
O=C(CSc1ccc2ccccc2c1)NCc1cccs1	1.0	0.69	0.8	3.5	0.0	.	2
C=CCNc1nc2ccccc2c(=O)[nH]1	-5.2	0.65	2.4	-45	0.2	4%	-3
Cn1cc(CC(=O)N2CCN(c3ccc(Cl)cc3)CC2)c2ccccc21	-1.4	0.67	1.9	2.6	0.2	19%	3
CCC(=O)n1nc(-c2ccc(Cl)cc2)nc1SC	-1.8	0.73	2.1	3.6	-0.8	?	1
Cc1cc(C)c(S(=O)(=O)c2ccccc2Cl)c(Cl)n1	3.0	0.72	2.3	1.0	0.0	?	.
NC(=O)C1CCN(C(=O)CNC(=O)c2ccccc2)CC1	6.8	0.71	0.0	3.4	0.6	-2%	-11
O=C1[C@@H]2CSCN2C(=O)CN1Cc1ccccc1F	4.1	0.63	2.6	-3.1	2.0	.	4
CN(CC(=O)O)S(=O)(=O)c1ccc(F)cc1	-2.9	0.66	2.3	5.7	0.1	-3%	-3
CCCN1C2=C(C(=O)CC(C)(C)C2)C(c2ccc(F)cc2)C2=C1c1ccccc1C2=O (stereo not drawn)	-0.3	0.67	1.2	6.5	-0.2	?	-1
Cc1cccc(C)c1NC(=O)c1cccc(N2C(=O)C3CCC(C)CC3C2=O)c1 (stereo not drawn)	-3.7	0.71	-3.0	4.5	0.3	.	2
Cc1cccc(C)c1NC(=O)C(c1ccccc1)N1CCN(C(=O)c2ccco2)CC1 (stereo not drawn)	-2.0	0.73	-4.1	1.5	-0.4	-3%	-12
O=C1CCc2cc(S(=O)(=O)Nc3ccccc3F)ccc2N1	1.9	0.67	i	4.9	1.8	-7%	-2
Cc1cccc(Nc2nnc(SCC(=O)NC(=O)CN3CCCC3=O)s2)c1	-2.0	0.68	-2.2	4.3	-4.3	-11%	4
O=C(CNC(=O)c1ccco1)Nc1ccc2c(c1)OCCO2	2.5	0.63	4.4	0.8	0.3	-1%	12
O=C(O)CC1S/C(=N/N=C/c2ccccn2)NC1=O (stereo not drawn)	0.7	.	24*	.	0.7	2%	-13
CC(=O)N1CC(c2ccccc2)C(c2ccc(Cl)cc2)=N1 (stereo not drawn)	-2.6	0.71	0.1	-1.6	1.5	-5%	3
CC(C)OC(=O)CN1C(=O)C(C)(C)Oc2ccc(C(=O)NC3CC3)cc21	-4.6	0.72	5.0	5.3	-0.1	-3%	-8
CCOC(=O)C1=C(C)Nc2nc3ccccc3n2C1c1ccncc1 (stereo not drawn)	-3.5	0.74	2.7	-25	0.5	1%	1
CC(=O)c1cccc(S(=O)(=O)Nc2ccccc2N2CCOCC2)c1	-0.4	0.68	3.5	1.7	-1.0	.	3
Cc1cc(C)cc(NC(=O)/C=C/c2ccc([N+](=O)[O-])s2)c1	20	0.72	-2.0	3.7	-0.5	.	0
Cc1nc(-c2ccc(Cl)cc2)sc1C1(C)CC(c2ccc(Cl)cc2)=NO1 (stereo not drawn)	1.0	0.72	1.3	0.0	-0.4	.	1
COc1ccc(CCNC(=O)CN(Cc2ccc(Cl)cc2)S(C)(=O)=O)cc1	-0.3	0.68	-0.1	4.1	-0.6	-2%	4
O=C(Nc1nsc(-c2ccccc2)n1)c1cccs1	-0.1	0.66	0.9	-2.3	-8.3	-3%	-14
CC(C)NC(=O)COC(=O)C1CSC2(c3ccc(Br)cc3)CCC(=O)N12 (stereo not drawn)	2.8	0.66	0.9	0.2	0.7	-3%	-2

Taken from the results shown for reference:
SMILES	HNF4A DNA FP	Ecoli growth	LANA-H2A inh	UCH37 inh	A1 inh	Vif A3G	B2AR ag
CC(C(=O)Nc1ccc2c(c1)OCO2)n1cnc2c1c(=O)n(C)c(=O)n2C (stereo not drawn)	-2.7	0.71	.	4.2	0.4	-20%	3
CCOC(=O)c1sc(SC)c(C(C)=O)c1C	0.1	0.75	1.3	-4.5	0.2	-2%	14
CC1CCN(CCOCCOc2ccccc2Br)CC1	-0.6	0.7	4.6	-0.1	0.0	6%	3
O=S(=O)(c1ccc(Br)cc1Cl)N1CCN(CCO)CC1	-3.1	0.7	-4.2	-1.6	-0.6	29%	-7
CC(C)CN(C(=O)COC(=O)CCc1nc2ccccc2s1)c1c(N)n(Cc2ccccc2)c(=O)[nH]c1=O	0.6	.	0.6	.	-0.6	.	-1

Additional records:
SMILES	HNF4A DNA FP	Ecoli growth	LANA-H2A inh	UCH37 inh	A1 inh	Vif A3G	B2AR ag
Cc1cc(/C=C(\C#N)C(=O)NC2CCCCCC2)c(C)n1C	-0.7	0.71	4.5	-39	-1.3	16%	10
COC(=O)c1ccc(CSc2nc(-c3ccco3)cc(C(F)(F)F)n2)o1	3.5	0.75	4.7	0.9	0.4	13%&10%	2
COc1ccc(OC)c(CCNC(=O)CCc2nnc3ccc(N4CCCC4)nn23)c1	-0.4	0.67	4.9	4.3	0.9	.	-5
Cc1ccc(-n2nc3c(=O)n(C(C)C(=O)NCCc4cccs4)nc(C)c3c2C)cc1 (stereo not drawn)	2.2	0.69	8.1	-0.2	0.4	.	1
c1ccc2[nH]cnc2c1	1.3	0.71	3.5	0.9	0.3	.	0
[O-]/[N+](=C\c1ccccc1)[C@@H]1CCCC[C@@H]1/[N+]([O-])=C/c1ccccc1	0.8	0.79	1.3	2.5	-0.5	5%	1
CN(CC(=O)Nc1ccc(F)cc1)CC(=O)N1CCc2ccccc21	-1.9	0.71	.	7.1	.	-7%	1
CCOc1ccc(OCC)c(NC(=O)CSCC(=O)O)c1	-2.1	0.72	0.8	2.9	-0.1	27%	-2
O=C(O)C1CCN(c2ccc(S(=O)(=O)N3CCOCC3)cc2[N+](=O)[O-])CC1	-0.7	0.71	2.3	8.0	0.7	25%	0
CC1CCc2c(sc3nc(CN4CCN(S(=O)(=O)c5ccccc5[N+](=O)[O-])CC4)[nH]c(=O)c23)C1 (stereo not drawn)	7.2	0.66	2.9	4.5	-0.4	.	-1
CC(C)C[C@@H](CN1CCC[C@@H]1CN1C(=O)C(=O)NC[C@@H]1Cc1ccccc1)N1C[C@H](Cc2ccc(O)cc2)N(CCc2ccccc2)C(=O)C1=O	2.1	.	.	.	.	-11%	-3
O=C(Nc1ccccc1[N+](=O)[O-])C1C(c2ccccc2)=C1c1ccccc1	3.1	0.73	-0.9	5.1	-0.3	70%	-4
NS(=O)(=O)c1ccc(NS(=O)(=O)/C=C/c2ccccc2)cc1	-0.4	0.69	2.0	3.8	1.0	-1%	4
CSCC[C@H](NC(=O)OC(C)(C)C)c1nnc(SCc2ccc(F)cc2)o1	2.5	0.7	2.0	-0.1	0.7	0%	-3
O=C(CNC(=S)N(CCCN1CCOCC1)Cc1cccs1)NCCN1CCOCC1	1.5	0.67	-5.1	5.3	-0.1	.	15
O=C(NC1CCCC1)C1CC(=O)N(C2CCCCCCC2)C1 (stereo not drawn)	-0.3	0.72	5.0	3.0	-0.1	-5%	0
Cc1ncoc1C(=O)Nc1cccc(Cl)c1	0.5	0.66	-1.3	4.2	1.0	10%	14
COc1cc2c(cc1OC)CN(C(C)C(=O)N1CCc3ccccc31)CC2 (stereo not drawn)	2.1	0.71	-0.8	-2.5	0.9	17%	0
O=C(O)c1ccc(-n2cccc2/C=C2/SC(=O)N(CC(=O)N3CCCC3)C2=O)cc1	-55	.	3.9	.	0.6	.	-6
Cc1c(NC(=O)COC(=O)CCc2c[nH]c3ccccc23)c(=O)n(-c2ccccc2)n1C	4.9	0.69	4.5	0.0	-0.2	-9%	-1
